# Calb FLC: C. albicans growth inhibition with fluconazole, primary screen, CaCi-2 strain, Alamar Blue fluorescence; C. albicans CaCi-2 (fluconazole-resistant clinical isolate) + fluconazole, 48 h; growth inhibition, % (no concentration beside the values); hit rate 0.57% among 300,000;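 active = most replicates above 75%; inconclusive = exactly half above 75%; inactive = most below 75%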;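 note: all wells also contain fluconazole at 8 µg/ml as a sub-toxic cotreatment; 0% = median of DMSO wells and 100% = median of geldanamycin control wells; wells of about 8 µL received 7.5 nL stock; the first replicate is given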
# MLL AF4-AF9 inh: inhibitors of AF4 peptide binding to AF9, primary screen, biochemical, AlphaScreen, biotin-AF4 peptide, FLAG-AF9, single point | Protein AF-9 (Homo sapiens), P42568 | hit rate 0.47% among 350,000 | inhibition, % at 10 µM;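 active = every replicate reaching a set inhibition limit, whatever the replicate mean, cut at about 25% in these data; inconclusive = mean inhibition reaches that limit but some replicates miss it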;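 note: 0% = plate neutral control median and 100% = total signal loss; the record names both 10 and 1 µM as test concentration; the first replicate is given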
# Target sequence (P42568 whole entry, looked up): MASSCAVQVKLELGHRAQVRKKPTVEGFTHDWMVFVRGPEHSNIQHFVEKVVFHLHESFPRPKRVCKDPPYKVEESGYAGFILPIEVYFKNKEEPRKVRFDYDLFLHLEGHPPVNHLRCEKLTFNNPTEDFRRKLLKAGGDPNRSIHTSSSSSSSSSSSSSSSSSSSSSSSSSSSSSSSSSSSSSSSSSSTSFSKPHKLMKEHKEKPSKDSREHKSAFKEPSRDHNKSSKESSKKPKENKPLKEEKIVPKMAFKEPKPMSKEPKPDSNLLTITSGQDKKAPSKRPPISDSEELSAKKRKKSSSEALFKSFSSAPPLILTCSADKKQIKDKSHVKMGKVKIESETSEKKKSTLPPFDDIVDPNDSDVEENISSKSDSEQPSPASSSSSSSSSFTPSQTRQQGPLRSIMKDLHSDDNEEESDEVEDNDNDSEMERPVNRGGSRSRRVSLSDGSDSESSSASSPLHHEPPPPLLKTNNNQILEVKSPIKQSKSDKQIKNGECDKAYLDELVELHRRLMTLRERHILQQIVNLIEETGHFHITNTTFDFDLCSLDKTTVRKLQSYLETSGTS
# T cruzi inh: inhibitors of intracellular T. cruzi growth, primary screen, luminescence, NIH3T3 host cells. T. cruzi beta-gal in NIH3T3, 90 h. inhibition, % (test concentration not listed). hit rate 1.4% among 300,000. AID 1885, 2009;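 active = mean inhibition across valid replicates above about 55%, limit read from the data; inconclusive = mean below that limit but half or more replicates reach it; inactive = mean below it, under half of replicates reach it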;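 note: signal also drops with host cell toxicity which is not excluded here; 0% = plate median of DMSO wells and 100% = zero luminescence signal; higher percent means less beta-gal luminescence so fewer parasites; stock transfer was 50 nL into about 50 µL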
# Ecoli rRNA inh: reduced GFP signal of wild-type E. coli, primary screen, bacterial rRNA inhibitor project, GFP/RFP fluorescence, OD600, single point; E. coli WT GFP vs humanized-ribosome RFP mutants, 24 h; hits give low values; DMSO median 0, no signal -100; GFP signal change (wild-type ribosome), % (concentration not given with the values); hit rate 1.6% among 350,000; AID 720706, 2013;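 active = significant combined selectivity score with lowered wild-type GFP, culture density cut under 30%, mutant RFP and density less affected; inactive = any of these conditions unmet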; note: one replicate is shown; some compounds called inactive have numbers as strong as hits
# ALR inh: inhibitors of human ALR sulfhydryl oxidase, primary screen, biochemical, H2O2 detection, HRP-luminol luminescence, single point; inhibition, % (test concentration not listed); FAD-linked sulfhydryl oxidase ALR (Homo sapiens), P55789; hit rate 3.8% among 290,000; purified ALR, DTT oxidation;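 active = mean and each replicate at 75% or more; inconclusive = only one of the two met; inactive = neither met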;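 note: stock transfer was 7.5 nL into about 7.5 µL; 0% = neutral wells and 100% = wells with inactivated enzyme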
# Target sequence (P55789 whole entry, looked up): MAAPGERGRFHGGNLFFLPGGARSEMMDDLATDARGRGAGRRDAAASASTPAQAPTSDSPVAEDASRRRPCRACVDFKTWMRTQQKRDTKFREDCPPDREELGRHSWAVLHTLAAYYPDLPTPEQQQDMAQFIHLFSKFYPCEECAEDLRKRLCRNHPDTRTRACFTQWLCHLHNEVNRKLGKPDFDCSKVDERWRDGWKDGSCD
# Beta apoptosis: inhibitors of cytokine-induced beta cell apoptosis, primary screen, luminescence; INS-1E cytokine-induced death, ATP luminescence, 48 h; percent of positive-control rescue, neutral wells zero; protection from apoptosis, % (concentration not given with the values); hit rate 0.8% among 300,000; AID 435005, 2010;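 active = all replicates at 75% or more, or half of them and the mean; inconclusive = half reach 75% but not the mean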;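 note: 0% = cytokine-treated negative control wells and 100% = positive control rescue; higher means more ATP so stronger rescue from cytokine killing; wells of about 40 µL received 100 nL stock; the first replicate is given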
# RanGTP-Imp inh: inhibitors of RanGTP-importin-beta interaction, primary screen, biochemical, FRET, CFP-Ran, YFP-importin-beta, homogeneous; cell-free CFP-Ran/YFP-importin-beta FRET ratio; inhibition, % (concentration not given with the values); hit rate 1.1% among 300,000; AID 2216, 2009;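 active = most replicates above 15%; inconclusive = exactly half above 15%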;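 note: 0% = DMSO wells and 100% = Ran loaded with GDP instead of GTP; wells of about 40 µL received 100 nL stock; the first replicate is given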
# FGF22 binding: binders of human FGF22 protein, primary screen, FGF22 synaptogenesis inhibitor project, biophysical, thermal shift, single point. Fibroblast growth factor 22 (Homo sapiens), Q9HCT0. recombinant FGF22 thermal shift, SYPRO orange fluorescence; percent of sucrose octasulfate shift, DMSO zero. calls only at 9.99 µM. hit rate 1.5% among 340,000. AID 651658, 2012;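 active = melting point raised past a set limit in the mean and every replicate; inconclusive = no clear call; three in four hits are not shown here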
# Target sequence (Q9HCT0 whole entry, looked up): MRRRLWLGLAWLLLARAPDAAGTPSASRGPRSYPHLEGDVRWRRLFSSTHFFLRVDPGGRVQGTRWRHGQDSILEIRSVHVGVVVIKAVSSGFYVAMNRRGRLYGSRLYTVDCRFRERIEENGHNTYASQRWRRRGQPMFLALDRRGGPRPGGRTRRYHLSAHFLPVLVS
# Ecoli rRNA inh OD600: recorded beside Ecoli rRNA inh, whose call it bears; OD600 change, %; measured here: OD600 growth;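 optical density of the mix in the first replicate; 0 = DMSO median and -100 = no signal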
# Ecoli rRNA inh RFP: second read-out of Ecoli rRNA inh, no call of its own (marks repeat the call); RFP signal change, %; measured here: RFP humanized mutant strains;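 first replicate; 0 = DMSO median and -100 = no signal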
# An asterisk follows results filed as active; i = inactive; ? = inconclusive; · = no result given. This is a subset; rates above refer to the full screens.
entry	SMILES	Calb FLC	MLL AF4-AF9 inh	T cruzi inh	Ecoli rRNA inh	Ecoli rRNA inh OD600	Ecoli rRNA inh RFP	ALR inh	Beta apoptosis	RanGTP-Imp inh	FGF22 binding
1	CN(C)S(=O)(=O)c1ccc(C(=O)Nc2ccnn2C2CCCCC2)cc1	1.4	·	-1.6	·	·	·	·	5.8	?	·
2	Cc1cc(C)n(C2CCCCC2OC(=O)CCc2ccccc2)n1 (stereo not given)	3.3	-3.1	-19.4	-13.1	-11.1	-1.3	-14.7	0.4	-0.4	i
3	CCOC(=O)C1CCCN(C(=O)COC(=O)C2=COCCO2)C1 (stereo not given)	-8.5	·	-16.8	·	·	·	-0.2	-3.2	2.3	·
4	CN(C(=O)c1ccc2c(c1)S(=O)(=O)N=C1CCCCCN12)c1ccccc1	1.4	-12.6	-6.8	0.3	-0.3	0.0	15.1	5.5	5.8	i
5	CCC1CCCCN1CCCNC(=O)c1cc2c(=O)oc3ccc(C)cc3c2s1 (stereo not given)	11.4	6.6	35.8	-4.4	2.7	22.3	-1.4	-2.2	5.3	i
6	COc1cc(/C=C/C(=O)c2ccc3c(c2)OCCO3)cc(OC)c1OC	19.2	3.5	8.1	-7.8	-6.6	-1.5	45.9	-20.5	3.6	i
7	O=S(=O)(c1ccc(F)cc1)n1ccc(-c2cnc(-c3ccccc3)s2)n1	-10.4	·	32.1	·	·	·	-6.2	-0.1	3.1	·
8	O=C(Cc1ccc(Cl)cc1)Nc1nc2ccccc2[nH]1	4.7	·	-4.7	·	·	·	-6.2	3.0	-0.7	·
9	COCCNC(=O)c1sc2ncn(CC(=O)N3CCCCC3)c(=O)c2c1C	-7.3	·	-15.1	·	·	·	-0.8	-2.2	0.1	·
10	CC1(C)CC(=O)C2=C(C1)C(c1cn(-c3ccccc3)nc1-c1ccccc1)C(C#N)=C(N)O2 (stereo not given)	-11.9	?	-16.3	2.0	1.1	3.5	72.5	-2.5	?	i
11	O=c1c(C(c2ccc(F)cc2)c2c(O)nc3n(c2=O)CCCS3)c(O)nc2n1CCCS2	4.0	1.7	-7.0	·	·	·	6.8	-7.5	2.0	i
12	CCCc1cc(=O)oc2cc(OCC(=O)NC3CCN(Cc4ccccc4)CC3)ccc12	-16.1	0.1	32.1	5.4	3.6	0.3	0.0	4.2	-1.8	i
13	CC(=O)N1CCN(CC(O)COc2ccc(Br)cc2)CC1 (stereo not given)	-0.9	-1.9	-6.5	7.3	11.9	-0.7	-0.6	·	-3.0	i
14	Cc1noc(C(=O)Nc2ccccc2C(F)(F)F)c1Cl	46.4	·	-3.3	·	·	·	-1.6	-0.3	-0.9	·
15	O=C(NCc1cccs1)c1nc(-c2cccs2)no1	-11.4	-3.5	4.1	2.4	5.6	3.1	-3.2	-1.6	-0.3	i
16	CO/N=C/C(=N\Nc1ccc(OC)cc1)C(=O)c1ccc(OC)cc1	0.5	·	45.0	·	·	·	-5.4	18.4	-3.6	·
17	C[C@@H]1O[C@@H](O[C@H]2[C@H](Oc3cc(O)c4c(c3)OC(c3ccc(O)cc3)CC4=O)O[C@H](CO)[C@@H](O)[C@@H]2O)[C@H](O)[C@H](O)[C@H]1O (stereo not given in full)	-11.8	-5.2	-19.1	·	·	·	21.4	-7.3	2.8	i
18	Cc1ccc(NC(=O)C(C)OC(=O)c2ccc(Cl)nc2)cc1S(=O)(=O)N1CCOCC1 (stereo not given)	1.2	3.4	-3.0	-3.1	-2.4	2.9	·	·	-0.1	i
19	Cc1cccc(/C(N)=N/OC(=O)CCC2CCCCC2)c1	-21.4	·	-6.0	·	·	·	1.1	-1.0	-1.0	·
20	Cc1ccc(NNC(=O)c2c(F)cccc2Cl)cc1C	-21.5	-1.0	13.5	0.5	-4.7	-1.4	24.5	-8.0	-0.4	i
21	Cc1ccc2nc(-c3ccc(NC(=O)COC(=O)c4cncc(Br)c4)cc3)sc2c1	1.2	-5.3	-15.6	-3.9	0.4	5.9	·	·	1.7	i
22	Clc1nc2ccccc2nc1-c1ccccc1	-0.3	-0.8	-2.2	3.3	-1.6	-3.9	1.8	-2.0	-1.2	i
23	Nc1ccccc1SCC(=O)Nc1nccs1	-7.2	-1.4	0.4	12.7	-2.7	-3.6	-1.5	-4.8	-0.1	i
24	CC(=O)NS(=O)(=O)c1ccc2c(c1)Cc1cc(S(=O)(=O)NC(C)=O)ccc1-2	1.1	-6.3	6.8	3.9	-0.7	-1.0	-6.8	-10.6	-1.0	i
25	COc1ccccc1NS(=O)(=O)c1ccc(S(=O)(=O)N2CCOCC2)cc1	3.5	0.6	-8.3	1.0	-10.9	-4.1	-11.8	-4.5	6.9	i
26	C=CCn1c(COc2cccc3ccc(C)nc23)nnc1SCC(=O)OC	-1.3	·	-2.1	·	·	·	-5.8	6.5	4.7	·
27	Cc1ccc(CNc2ccc(N3CCOCC3)cc2)cc1	-7.4	18.1	11.1	5.8	0.5	5.0	98.9*	5.8	-2.7	i
28	Cc1ccc(O)c(C2=NCCNC(C(F)(F)F)=C2)c1	6.8	·	-11.3	·	·	·	91.2*	0.0	-2.3	·
29	COc1ccc(OCCN2C(=O)NC(C)(c3ccc(C)cc3)C2=O)cc1 (stereo not given)	39.0	·	11.3	·	·	·	-7.4	-6.3	?	·
30	C#CCOc1nc(Nc2cccc([N+](=O)[O-])c2)nc(OCC#C)n1	8.7	-1.0	18.8	-17.6*	-3.7*	1.4*	7.5	11.5	7.6	i
31	O=C(NCc1ccco1)/C(=C\c1cccs1)NC(=O)c1cccs1	3.0	-0.6	-5.1	4.9	4.3	2.7	-5.1	-3.3	0.7	i
32	COC(=O)c1ccccc1SC(CC(=O)c1ccccc1)c1ccc(F)cc1 (stereo not given)	2.4	0.3	-12.6	15.2	-0.9	1.8	-4.5	-5.6	-3.1	i
33	COC(=O)c1sccc1NC(=O)c1cc(OC)c(OC)c(OC)c1	5.2	·	16.7	·	·	·	-7.8	-2.9	3.6	·
34	CC(NC(=O)C(NC(=O)C1CCCN1C(=O)OC(C)(C)C)C(C)C)C(N)=O (stereo not given)	-0.4	·	-14.4	·	·	·	-10.0	-2.4	1.8	·
35	CCOC(=O)c1ccc(S(=O)(=O)N2CCN(C(=O)c3cc(=O)c4ccccc4o3)CC2)cc1	-2.7	0.4	8.8	-4.5	-7.8	3.1	-2.4	-8.4	-2.5	i
36	CC(=O)c1ccc(N2CCC(c3cc(-c4ccc(Cl)cc4)n[nH]3)CC2)c([N+](=O)[O-])c1	-6.2	·	74.0*	·	·	·	-18.6	40.5	-4.9	·
37	Cc1ccccc1CC(=O)NC1CCCc2ccccc21 (stereo not given)	4.2	1.7	-10.1	18.4	6.8	-1.2	4.1	4.4	0.4	i
38	COc1cccc(C(=O)Nc2sc3c(c2C#N)CCN(C(C)=O)C3)c1	·	-4.5	-72.6	-5.2	-5.1	-0.8	-25.0	-1.8	·	i
39	COc1ccc(C(=O)C[n+]2cn(C(F)F)c3ccccc32)c(F)c1	6.2	-4.7	-24.7	-21.0	0.9	0.8	57.6	4.1	4.7	i
40	CC(C)C(=O)N1CCN(c2ccc(NC(=S)NC(=O)c3cc4ccccc4o3)cc2)CC1	4.6	1.3	-4.6	0.7	7.5	-0.7	-7.7	-1.2	5.7	i
41	CC(C)(C)OC(=O)N1CCN(c2ccc([N+](=O)[O-])cc2)CC1	-21.1	-0.5	4.6	-0.1	9.9	3.4	-10.6	0.0	-1.3	i
42	O=C(O)CSc1nnnn1-c1ccccc1	8.5	·	-6.6	·	·	·	-1.4	-3.5	0.0	·
43	N/C(=N\OC(=O)c1cc(Cl)ccc1Cl)c1ccccn1	4.4	-8.0	-6.1	-6.7	-0.9	-3.9	17.2	5.1	?	i
44	CC/C(O)=C1\C(=O)CCCC1=NCc1nc2ccccc2[nH]1	24.8	0.1	1.1	8.7	5.0	1.9	-10.2	-5.2	-4.6	i
45	O=C(Nc1ccc(F)c(F)c1)c1ccccc1-c1ccccc1	-3.8	·	-13.5	·	·	·	-12.6	-4.4	-1.7	·
46	O=C(Oc1ccc(Br)cc1C(=S)N1CCCCC1)c1cc([N+](=O)[O-])cc([N+](=O)[O-])c1	-0.6	·	-1.1	·	·	·	-1.8	0.6	1.9	·
47	CCNC(=S)N1CCC(NC(=O)C2CCCCC2)CC1	-4.7	·	-0.4	·	·	·	-2.8	-0.3	-4.8	·
48	Fc1ccc(-c2nc3c(-c4ccc(Cl)cc4)cnn3cc2CCN2CCOCC2)cc1	-2.2	1.4	25.4	1.2	-2.3	-1.8	·	13.1	-0.3	i
49	COc1ccc(CCNC(=O)CSc2nnc3ccc(-c4ccccn4)nn23)cc1OC	-4.2	?	-0.4	13.3	10.0	-0.3	-1.4	4.8	-1.2	i
50	N#CC1(NC(=O)COC(=O)C23CC4CC(CC(O)(C4)C2)C3)CCCCC1	1.9	-2.7	-5.1	12.4	9.3	1.5	-2.1	-1.2	?	i
51	Cc1cccc(-n2c(CNC(=O)c3ccc(S(=O)(=O)N4CCCCC4)cc3)n[nH]c2=S)c1	-6.6	-4.3	0.6	8.5	5.8	6.1	20.7	-4.2	2.2	i
52	Cc1ccc2c(O)c(C)c(=O)[nH]c2n1	-8.8	0.3	2.3	4.4	1.4	-0.6	0.8	-0.2	?	i
53	O=C1CCC(=O)N1CCc1c[nH]c2ccccc12	0.1	·	-14.9	·	·	·	18.9	-4.0	-3.5	·
54	CC(C)c1ccc(N(CC(=O)O)S(=O)(=O)c2cccnc2)cc1	-6.0	-0.5	1.5	13.1	9.4	0.9	-7.0	-4.3	0.8	i
55	CC(=O)Nc1ccc(C(=O)OCc2ccccc2Br)cc1	21.4	-9.3	0.0	-26.2	-23.4	-0.4	-4.4	-3.9	2.6	i
56	O=C1CC(Cc2ccc(Cl)cc2)C(=O)N1c1cc(Cl)ccn1 (stereo not given)	6.8	-4.1	-1.9	-4.2	-3.9	-1.9	-11.3	-10.7	-1.1	i
57	O=C(/C=C/c1ccc(Cl)cc1Cl)c1nc2ccccc2[nH]1	0.3	·	1.7	·	·	·	59.9	3.4	3.4	·

# Bioassay records: PubChem, Broad Institute
